HIV Env fusion: blocks HIV Env-driven cell-cell fusion. 1.1% of 360,000 active. HeLa-JRFL Env/CEM21 cell fusion, luciferase. inhibition, % at 12.3 µM. AID 651610;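 active = mean replicate inhibition score of at least 50 and every replicate individually at or above 50; inconclusive = only one of the two criteria met; inactive = mean below 50 and not all replicates reaching 50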;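 also: 0% = plate neutral controls and 100% = maraviroc near 300 nM; one replicate is shown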
MT1-MMP act inh: blocks activation of human MT1-MMP; 0.061% of 360,000 active; P50281; HT1080 RFP-PRO-GFP cells, GFP/RFP ratio fluorescence, overnight; percent of plate control window, DMSO zero; AID 651647; GFP/RFP ratio change, % at 20 µM;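 active = GFP/RFP ratio change of at least 30% with cell ATP level not reduced by more than half and red fluorescence within 50% of control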; also: strong numbers were not always called active
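Test system: HT1080 RFP-PRO-GFP cells; Benchmarks: DMSO and RFP-L50D-GFP cell wells; Timing: cells overnight before dosing, compound overnight, 37 °C, 5% CO2; Compound: one 20 µM compound dose with 1% DMSO; Read-out: GFP/RFP fluorescence ratio.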
PABP polyA inh: blocks human PABP binding to poly(A) RNA | fluorescence polarization | inhibition, % at 35 µM | 1% of 290,000 active;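 active = 50% or more with normal probe brightness, or confirmed in later tests; inconclusive = above 50% with abnormal brightness, or retests that disagree; inactive = below 50% or failed in later tests; about a fifth of its hits are not listed in these tables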;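 also: calls also rest on retests at 20 µM and on dose response follow-up; controls were probe without protein and protein plus probe with vehicle; some compounds called inactive have numbers as strong as hits; many hits fall short of the cut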
Target sequence (P11940 whole entry, looked up): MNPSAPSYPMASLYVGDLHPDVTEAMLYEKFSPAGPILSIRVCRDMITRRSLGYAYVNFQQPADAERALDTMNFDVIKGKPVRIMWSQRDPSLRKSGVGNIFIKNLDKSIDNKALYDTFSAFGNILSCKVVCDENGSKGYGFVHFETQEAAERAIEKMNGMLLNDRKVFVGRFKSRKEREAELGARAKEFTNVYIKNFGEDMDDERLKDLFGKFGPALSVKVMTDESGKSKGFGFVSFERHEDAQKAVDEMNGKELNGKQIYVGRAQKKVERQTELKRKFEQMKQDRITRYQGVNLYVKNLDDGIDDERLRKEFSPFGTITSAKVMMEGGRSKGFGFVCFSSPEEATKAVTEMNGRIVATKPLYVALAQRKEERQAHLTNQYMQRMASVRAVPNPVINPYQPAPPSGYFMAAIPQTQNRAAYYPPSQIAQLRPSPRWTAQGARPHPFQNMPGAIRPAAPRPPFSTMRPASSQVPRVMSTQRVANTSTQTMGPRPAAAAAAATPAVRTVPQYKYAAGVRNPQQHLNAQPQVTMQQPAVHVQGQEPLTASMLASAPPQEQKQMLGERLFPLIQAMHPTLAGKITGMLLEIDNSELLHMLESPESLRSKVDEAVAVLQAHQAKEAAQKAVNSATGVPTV
Rce1 inh: inhibitors of yeast Ras-converting enzyme; Q03530; yeast membranes, quenched prenylated peptide cleavage fluorescence; calls only; 0.27% of 290,000 active; AID 2563;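 active = fall in fluorescence gain of 50% or more versus controls, with final raw signal at or below 3038400; inconclusive = same 50% fall but final raw signal above 3038400; inactive = fall in fluorescence gain under 50%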;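 also: plate controls were neutral control wells for no effect and wells lacking membranes for full effect; tested at 10 µM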
eIF4H inh: inhibitors of RNA binding by human eIF4H; eIF4H fluorescence polarization binding assay; Q15056; 0.94% of 290,000 active; inhibition, % at 35 µM;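 active = 50% or more with normal probe brightness, or confirmed in later tests; inconclusive = above 50% with abnormal brightness, or retests that disagree; inactive = below 50% or failed in later tests; about a fifth of its hits are not listed in these tables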;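 also: calls also rest on retests at 20 µM and on dose response follow-up; 0% = protein and probe with vehicle and 100% = probe without protein; strong numbers were not always called active; many hits fall short of the cut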
UUG fidelity: modulators of start codon recognition fidelity in yeast | S. cerevisiae UUG-firefly luciferase reporter, luminescence/redox ratio | activity score, % at 18.7 µM | 0.13% of 350,000 active;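 active = replicate mean at a twofold rise or more, about +100% in these data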;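 also: firefly luciferase made from a UUG start codon reports start codon fidelity; reporter light over untreated wells divided by growth signal over untreated wells; some hits fall short of that in this replicate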
CSC inhib: blocks cancer stem cells; cancer stem cell-like cells viability, luminescence; inhibition, % at 7.5 µM; 1.1% of 300,000 active;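 active = mean at 75% or more and at least half the replicates too; inconclusive = mean and replicates disagree; tested in HMLE shEcad cells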;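 also: 0% = median of negative and 100% = median of positive control wells; the first replicate is given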
MT1-MMP act inh RFP: recorded beside MT1-MMP act inh, whose call it bears; RFP signal change, %; measured here: RFP expression control read;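 0 = vehicle wells; hits needed this value within 50% of zero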
* = called active by the depositor; i = inactive; ? = inconclusive; · = no result given.

SMILES | HIV Env fusion | MT1-MMP act inh | MT1-MMP act inh RFP | PABP polyA inh | Rce1 inh | eIF4H inh | UUG fidelity | CSC inhib
O=[N+]([O-])c1cccc(-n2nnnc2CN2CCCC2)c1 | -2 | 3 | 2 | -9 | i | -4 | -18 | -11
COc1cccc2cc(C(=O)NC(C)c3ccccc3)c(=O)oc12 (stereo not given) | -13 | 3 | 2 | -2 | i | 5 | -37 | -5
CC(Cn1cnc2ccccc21)C(=O)O (stereo not given) | · | 4 | 2 | -5 | i | 9 | -9 | -4
CCOC(=O)C1(C)CCCN(C(=O)CCc2ccccc2)C1 (stereo not given) | 18 | 2 | 5 | · | · | · | -11 | ·
CCOc1ccc(CN(C)C(=O)CNC(=O)Cc2cccc3ccccc23)cc1 | 1 | 0 | -6 | 9 | i | -4 | 2 | 4
CCOc1ccccc1N1CCN(S(=O)(=O)c2ccc(F)c(F)c2)CC1 | · | -2 | -1 | 3 | i | 5 | -15 | 0
O=C(C1=C(O)C(=O)N(CCN2CCOCC2)C1c1ccco1)c1cc2ccccc2o1 (stereo not given) | -9 | -9 | 5 | 9 | i | 4 | -7 | -5
Cc1ccccc1-n1nc2c(c1NC(=O)c1cc3ccccc3oc1=O)CS(=O)(=O)C2 | -6 | · | · | 2 | · | -4 | · | -10
Cc1ccc(CNC(=O)c2ccc(S(=O)(=O)N3CCCC3)cc2)cc1 | 5 | 2 | 3 | · | · | · | -17 | ·
CC1CC2OC2CC1COC(=O)C1CC2OC2CC1C (stereo not given) | -2 | 0 | 1 | · | · | · | -10 | ·
O=C(CCN1C(=O)/C(=C/c2cccs2)SC1=S)Nc1cccc(O)c1 | 7 | 1 | -4 | 0 | i | -24 | -11 | -2
Cc1cccc2c1N(CC(=O)OC(C)C)C(=O)C2=O | -3 | 2 | 5 | -28 | i | -7 | -5 | -3
COCCn1c(SCc2ccc(C(=O)OC)o2)nc2ccccc2c1=O | · | 5 | -2 | 8 | · | -7 | -5 | -16
COC(=O)c1ccc(OCC2c3cc(OC)c(OC)cc3CCN2C(=O)C2CC2)cc1 (stereo not given) | 12 | -5 | -5 | 4 | i | -3 | 1 | -1
N#CC1=C2C=CC=CN2CC1=O | · | 1 | 8 | 10 | i | 0 | -25 | -12
O=C(Nc1ccccc1Oc1ccccc1)c1ccccc1F | -28 | 1 | 0 | 2 | i | -19 | · | -9
Cc1ccc(C)c(C(=O)CSc2nnnn2C(C)C)c1 | -111 | 8 | 5 | 34 | i | 3 | -1 | -6
CC(=NO)c1cc(Br)c2cccc3c2c1CC3 | -105 | 7 | -1 | · | · | · | -16 | ·
Cc1ccc(S(=O)(=O)NCC(C)NS(=O)(=O)c2ccc(C)cc2)cc1 (stereo not given) | -9 | 0 | -3 | -2 | i | 1 | -12 | -7
CC(C)OC(=O)CC1C(=O)NCCN1C(=S)NC(=O)c1cccs1 (stereo not given) | 13 | 4 | 7 | -6 | i | 1 | 1 | -9
COc1ccc(NC(=O)Cn2c([N+](=O)[O-])cnc2C)c(OC)c1 | -12 | 3 | 2 | · | · | · | -34 | ·
CCn1c(=O)c2c(nc3n2CCN3c2ccccc2)n(C)c1=O | -22 | 5 | -1 | 12 | i | 6 | -23 | 0
Cc1n[nH]c(=O)c2c(NC(=O)COC(=O)c3ncc(Cl)c(Cl)c3Cl)oc(C)c12 | -26 | 0 | 3 | · | · | · | -10 | -5
COc1ccc(-c2noc(CCC(=O)N3CCN(c4ccccc4C(F)(F)F)CC3)n2)cc1 | -6 | 1 | 3 | · | · | · | -15 | ·
O=c1c2ccccc2[nH]c(=S)n1CCN1CCCC1 | -1 | -1 | -1 | -2 | i | -3 | -10 | -7
O=C(CCNC(=O)c1ccc(Br)cc1)NCCCN1CCOCC1 | ? | -2 | 2 | · | · | · | 3 | ·
O=C(CCOc1ccccc1)NNC(=O)c1ccccc1 | 16 | 2 | 1 | · | · | · | 2 | -2
O=C(O)c1ccc(N2C(=O)CSC2c2cccc([N+](=O)[O-])c2)cc1 (stereo not given) | -10 | 1 | 4 | 8 | i | 1 | -11 | ·
CS(=O)(=O)N1CCN(c2nc3ccccc3s2)CC1 | · | 2 | -3 | 5 | i | 0 | -3 | -6
CCOc1ccccc1NC(=S)N1CCC(NC(=O)c2ccco2)CC1 | -8 | -3 | 1 | -3 | i | -1 | -14 | -3

An excerpt taken from the entries so far, for reference:
SMILES | HIV Env fusion | MT1-MMP act inh | MT1-MMP act inh RFP | PABP polyA inh | Rce1 inh | eIF4H inh | UUG fidelity | CSC inhib
O=C(Nc1ccccc1Oc1ccccc1)c1ccccc1F | -28 | 1 | 0 | 2 | i | -19 | · | -9
Cc1ccc(C)c(C(=O)CSc2nnnn2C(C)C)c1 | -111 | 8 | 5 | 34 | i | 3 | -1 | -6

The list continues:
SMILES | HIV Env fusion | MT1-MMP act inh | MT1-MMP act inh RFP | PABP polyA inh | Rce1 inh | eIF4H inh | UUG fidelity | CSC inhib
COc1cc(NS(=O)(=O)c2ccc(C)cc2C)cc(OC)c1OC | 39 | 1 | -16 | -4 | i | -10 | -11 | 10
Cc1cc(C)c2c(=O)[nH][nH]c2n1 | 17 | 2 | 6 | · | · | · | -7 | ·
CC1(C(=O)NS(=O)(=O)c2ccc(C#N)cc2)CCN1C(=O)CC1CCCC1 (stereo not given) | 4 | -2 | 2 | · | · | · | -7 | ·
O=C(COc1ccc(/C=N/NC(=O)c2cc3ccccc3o2)cc1Br)Nc1ccccc1 | · | -54 | -32 | -13 | i | -37 | 1 | 99*
Cc1nn(C)c(C(=O)Nc2ccn(Cc3c(F)c(F)cc(F)c3F)n2)c1[N+](=O)[O-] | -1 | 1 | 0 | -4 | i | -5 | -15 | ·
CCOc1ccc(NC(=S)Nc2cc(OC)c(Cl)cc2OC)cc1 | 17 | -1 | 4 | -1 | i | 12 | · | 8
CCc1ccc(OCC(=O)N2c3ccccc3CCc3ccccc32)cc1 | 5 | -8 | -9 | 8 | i | -6 | 10 | 29
CCOC(=O)Cc1c(C)nc2c(-c3ccc(OC)cc3)c(C)nn2c1C | 64* | 7 | -2 | 2 | i | 15 | -8 | -13
CC(C)(C)n1nnnc1C(c1ccccn1)N(Cc1ccccc1)Cc1ccc(Cl)cc1 (stereo not given) | 127* | -16 | -17 | -3 | i | -4 | -17 | -17
COc1cccc(CN(C)CC(=O)Nc2ccccc2C(=O)Nc2ccccc2)c1 | 6 | -6 | -6 | -9 | i | 2 | 1 | ·
Cc1ccc(N2C(=O)CC(n3nc(C)cc3C)C2=O)cc1 (stereo not given) | · | 8 | 2 | -4 | i | -1 | -11 | -4
Cc1noc(C)c1COC(=O)c1cccc(S(=O)(=O)N2c3ccccc3CC2C)c1 (stereo not given) | · | -15 | -20 | -11 | i | -5 | -14 | -8
COCCNC(=O)c1c(N)n(/N=C/c2cccs2)c2nc3ccccc3nc12 | -113 | -2 | -2 | -5 | i | -3 | -5 | 1
CC(O)(c1cccnc1)c1nc(-c2ccoc2)cs1 (stereo not given) | -6 | -1 | -3 | · | · | · | -21 | ·
COc1ccc(NC(=O)c2ccc(-n3cccn3)nc2)cc1 | -44 | -3 | 1 | 5 | i | -9 | -24 | -9
COc1ccc(N=Nc2ccc3ccccc3c2)c(O)c1 | -163 | 7 | 0 | 0 | i | -5 | -51 | 17
COc1cccc(S(=O)(=O)NCc2ccc(C(=O)NCc3ccco3)cc2)c1 | · | -4 | -2 | 0 | i | 14 | · | -9
CN(C)CCCNC(=S)N(CCO)Cc1cc2cc3c(cc2[nH]c1=O)OCO3 | 7 | 2 | 4 | 4 | · | 1 | -18 | 1
CCN1CCN(c2c(Cl)cccc2NC(=O)c2ccc([N+](=O)[O-])o2)CC1 | 7 | 0 | -7 | -8 | i | 8 | -5 | 24
COC(=O)c1cn(NC(=O)COc2ccc(Cl)cc2)c(=O)c2ccccc12 | 10 | -3 | 3 | -6 | i | -6 | -15 | -5
Cc1ccc2cc(S(=O)(=O)NCCCN3CCOCC3)ccc2c1 | 10 | 3 | -2 | -5 | i | 0 | · | -8
O=C(NCCCO)c1nc2ccccc2s1 | · | -1 | 2 | 5 | i | -6 | 1 | -11
Cc1ccnc2nc(C(=O)OCC(=O)NCCc3ccc(Cl)cc3)nn12 | 12 | -6 | 3 | 3 | i | -7 | 1 | -5
Cc1ccc2c(c1)CCCN2CC(=O)Nc1cccc(S(=O)(=O)N2CCCC2)c1 | -19 | 0 | 13 | · | · | · | -2 | ·
c1ccc(-c2noc(CN3CCN(c4ccccc4)CC3)n2)cc1 | -15 | 2 | 4 | -2 | i | -7 | -3 | -24
Cc1ccc(-c2nc(CS(=O)CC(=O)NCCN3CCOCC3)c(C)o2)cc1 (stereo not given) | · | -2 | 4 | 3 | i | 7 | -7 | ·
C#CC(C)OC(=O)C(C)NC(=O)c1ccccc1 (stereo not given) | -6 | -4 | 0 | -9 | i | 0 | -4 | 5
O=C(Nc1cccnc1)c1ccccc1Oc1ccccc1 | 5 | -2 | -2 | 3 | i | 3 | -15 | -10
CC(C)CCNC(=O)C1CCN(c2nc3ccccc3o2)CC1 | 21 | 6 | -1 | -7 | i | -5 | 0 | 11
CC(C(=O)O)N1C(=O)C2C3c4ccccc4C(c4ccccc43)[C@@H]2C1=O (stereo not given in full) | -5 | 0 | 3 | 10 | i | 2 | -12 | -11

Some values from above.
Value for CC(C(=O)O)N1C(=O)C2C3c4ccccc4C(c4ccccc43)[C@@H]2C1=O (stereo not given in full) in CSC inhib: -11
Value for COC(=O)c1cn(NC(=O)COc2ccc(Cl)cc2)c(=O)c2ccccc12 in CSC inhib: -5

(continued)
SMILES | HIV Env fusion | MT1-MMP act inh | MT1-MMP act inh RFP | PABP polyA inh | Rce1 inh | eIF4H inh | UUG fidelity | CSC inhib
COc1ccc(C2(C(=O)Nc3ccc(S(=O)(=O)Nc4nc(C)cc(C)n4)cc3)CCCC2)cc1OC | -25 | -4 | 2 | -5 | i | -3 | · | ·
Cc1ccccc1NS(=O)(=O)c1ccc2[nH]cc(C(=O)NCCCN3CCOCC3)c(=O)c2c1 | · | 1 | 2 | -14 | i | 0 | -6 | -12
O=C(Nc1c(Cl)ccc2nsnc12)c1ccco1 | 8 | -6 | 1 | -7 | i | -2 | 11 | ·
COc1ccc(NC2=C(C(C)=O)C(c3ccc(N(C)C)cc3)C(C(C)=O)C(C)(O)C2)cc1 (stereo not given) | -9 | -3 | 1 | 4 | i | -4 | · | -7
COc1ccc(/C=N/NC(=O)CNc2c(Br)cc(C)cc2Br)c(C(=O)O)c1OC | -23 | 0 | 7 | 1 | i | 0 | · | -19

Full records, quoted from the list. Screens in order: HIV Env fusion | MT1-MMP act inh | MT1-MMP act inh RFP | PABP polyA inh | Rce1 inh | eIF4H inh | UUG fidelity | CSC inhib
`Cc1ccccc1NS(=O)(=O)c1ccc2[nH]cc(C(=O)NCCCN3CCOCC3)c(=O)c2c1` in the list: · | 1 | 2 | -14 | i | 0 | -6 | -12
`COc1ccc(NC2=C(C(C)=O)C(c3ccc(N(C)C)cc3)C(C(C)=O)C(C)(O)C2)cc1` (stereo not given) in the list: -9 | -3 | 1 | 4 | i | -4 | · | -7
`COc1ccc(C2(C(=O)Nc3ccc(S(=O)(=O)Nc4nc(C)cc(C)n4)cc3)CCCC2)cc1OC` in the list: -25 | -4 | 2 | -5 | i | -3 | · | ·
`O=C(Nc1c(Cl)ccc2nsnc12)c1ccco1` in the list: 8 | -6 | 1 | -7 | i | -2 | 11 | ·

An excerpt from above, showing only PABP polyA inh, HIV Env fusion and CSC inhib.
| SMILES | PABP polyA inh | HIV Env fusion | CSC inhib |
| --- | --- | --- | --- |
| c1ccc(-c2noc(CN3CCN(c4ccccc4)CC3)n2)cc1 | -2 | -15 | -24 |
| Cc1ccc(-c2nc(CS(=O)CC(=O)NCCN3CCOCC3)c(C)o2)cc1 (stereo not given) | 3 | · | · |

High-throughput results deposited in PubChem by several laboratories.

A portion of the library; the hit share may differ from the screen's.
